Calb FLC = affects C. albicans growth with fluconazole. C. albicans CaCi-2 (fluconazole-resistant clinical isolate) + fluconazole, Alamar Blue growth, 48 h. growth inhibition, % (concentration not given with the values). hit rate 0.57% among 300,000;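 active = most replicates above 75%; inconclusive = exactly half above 75%; inactive = most below 75%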;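 note: all wells also contain fluconazole at 8 µg/ml as a sub-toxic cotreatment; 0% = median of DMSO wells and 100% = median of geldanamycin control wells; wells of about 8 µL received 7.5 nL stock; the first replicate is given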
ALR H2O2 inh = human ALR oxidase inhibition via reduced H2O2; purified ALR, DTT oxidation, H2O2 HRP-luminol luminescence; inhibition, % (no concentration beside the values); hit rate 3.8% among 290,000;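 active = mean and each replicate at 75% or more; inconclusive = only one of the two met; inactive = neither met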;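 note: stock transfer was 7.5 nL into about 7.5 µL; 0% = neutral wells and 100% = wells with inactivated enzyme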
Target sequence (P55789 whole entry, looked up): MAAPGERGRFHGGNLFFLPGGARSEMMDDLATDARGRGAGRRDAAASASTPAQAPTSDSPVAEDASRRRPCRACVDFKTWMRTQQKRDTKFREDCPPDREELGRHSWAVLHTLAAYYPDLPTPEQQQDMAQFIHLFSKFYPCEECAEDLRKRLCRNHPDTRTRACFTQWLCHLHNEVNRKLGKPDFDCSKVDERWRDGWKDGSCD
Beta cell apopt = blocks beta cell apoptosis | INS-1E cytokine-induced death, ATP luminescence, 48 h; percent of positive-control rescue, neutral wells zero | protection from apoptosis, % (concentration not given with the values) | hit rate 0.8% among 300,000;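 active = all replicates at 75% or more, or half of them and the mean; inconclusive = half reach 75% but not the mean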;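 note: 0% = cytokine-treated negative control wells and 100% = positive control rescue; higher means more ATP so stronger rescue from cytokine killing; wells of about 40 µL received 100 nL stock; the first replicate is given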
T cruzi repl = T. cruzi replication inhibition; hit rate 1.4% among 300,000; inhibition, % (concentration not given with the values); T. cruzi beta-gal in NIH3T3, luminescence, 90 h;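 active = mean inhibition across valid replicates above about 55%, limit read from the data; inconclusive = mean below that limit but half or more replicates reach it; inactive = mean below it, under half of replicates reach it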;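 note: signal also drops with host cell toxicity which is not excluded here; 0% = plate median of DMSO wells and 100% = zero luminescence signal; higher percent means less beta-gal luminescence so fewer parasites; stock transfer was 50 nL into about 50 µL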
FGF22 binding = shifts melting point of recombinant human FGF22. calls only at 9.99 µM. hit rate 1.5% among 340,000. AID 651658. recombinant FGF22 thermal shift, SYPRO orange fluorescence; percent of sucrose octasulfate shift, DMSO zero. Q9HCT0;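 active = melting point raised past a set limit in the mean and every replicate; inconclusive = no clear call; three in four hits are not shown here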
Target sequence (Q9HCT0 whole entry, looked up): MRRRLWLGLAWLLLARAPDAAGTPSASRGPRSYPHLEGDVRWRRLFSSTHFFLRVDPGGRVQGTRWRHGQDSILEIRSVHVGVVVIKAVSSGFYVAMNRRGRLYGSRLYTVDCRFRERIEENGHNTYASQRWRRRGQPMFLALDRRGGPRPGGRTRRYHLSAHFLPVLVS
Ecoli rRNA inh = inhibits bacterial ribosomal RNA function over humanized ribosomes; hit rate 1.6% among 350,000; E. coli WT GFP vs humanized-ribosome RFP mutants, fluorescence, 24 h; stronger effect = lower value; DMSO median 0, no signal -100; GFP signal change (wild-type ribosome), % (no concentration beside the values);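 active = significant combined selectivity score with lowered wild-type GFP, culture density cut under 30%, mutant RFP and density less affected; inactive = any of these conditions unmet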; note: one replicate is shown; some compounds called inactive have numbers as strong as hits
MLL AF4-AF9 inh = MLL-AF4/AF9 protein interaction inhibition; AID 651704; hit rate 0.47% among 350,000; inhibition, % at 10 µM; AlphaScreen, biotin-AF4 peptide binding to FLAG-AF9;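 active = every replicate reaching a set inhibition limit, whatever the replicate mean, cut at about 25% in these data; inconclusive = mean inhibition reaches that limit but some replicates miss it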;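 note: 0% = plate neutral control median and 100% = total signal loss; the record names both 10 and 1 µM as test concentration; the first replicate is given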
Target sequence (P42568 whole entry, looked up): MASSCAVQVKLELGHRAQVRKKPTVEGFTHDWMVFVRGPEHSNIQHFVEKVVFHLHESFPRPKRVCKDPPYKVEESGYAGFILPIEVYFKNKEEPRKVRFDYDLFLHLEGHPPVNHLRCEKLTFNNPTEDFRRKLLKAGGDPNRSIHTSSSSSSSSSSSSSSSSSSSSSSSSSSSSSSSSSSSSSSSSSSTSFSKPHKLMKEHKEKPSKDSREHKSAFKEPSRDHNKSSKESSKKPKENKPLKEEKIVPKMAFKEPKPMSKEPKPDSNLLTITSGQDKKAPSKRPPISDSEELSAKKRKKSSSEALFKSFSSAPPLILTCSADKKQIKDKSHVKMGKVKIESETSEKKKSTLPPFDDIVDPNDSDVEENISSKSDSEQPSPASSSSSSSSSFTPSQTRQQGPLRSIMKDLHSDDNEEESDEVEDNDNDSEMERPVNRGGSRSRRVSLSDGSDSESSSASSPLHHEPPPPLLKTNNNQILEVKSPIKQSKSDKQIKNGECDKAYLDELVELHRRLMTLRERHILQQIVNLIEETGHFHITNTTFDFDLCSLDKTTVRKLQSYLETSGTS
RanGTP-Impb inh = disruptors of Ran-importin-beta complex formation – biochemical, FRET, CFP-Ran, YFP-importin-beta, homogeneous, primary screen | cell-free CFP-Ran/YFP-importin-beta FRET ratio | inhibition, % (test concentration not listed) | hit rate 1.1% among 300,000 | AID 2216;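 active = most replicates above 15%; inconclusive = exactly half above 15%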;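 note: 0% = DMSO wells and 100% = Ran loaded with GDP instead of GTP; wells of about 40 µL received 100 nL stock; the first replicate is given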
Ecoli rRNA inh OD600 = also measured in Ecoli rRNA inh; calls as there; OD600 change, %; measured here: OD600 growth;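 optical density of the mix in the first replicate; 0 = DMSO median and -100 = no signal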
Ecoli rRNA inh RFP = also measured in Ecoli rRNA inh; calls as there; RFP signal change, %; measured here: RFP humanized mutant strains;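 first replicate; 0 = DMSO median and -100 = no signal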
Active calls of the source: *; i = inactive; ? = inconclusive; nt = not tested or not shown. Not all compounds are listed; rates above refer to the full screens.

SMILES	Calb FLC	ALR H2O2 inh	Beta cell apopt	T cruzi repl	FGF22 binding	Ecoli rRNA inh	Ecoli rRNA inh OD600	Ecoli rRNA inh RFP	MLL AF4-AF9 inh	RanGTP-Impb inh
COc1ccc(C)cc1N(C(=O)CNC(=O)c1ccco1)C(C(=O)NCC1CCCO1)c1ccccc1 (stereo not drawn)	3	-2	-8	7	i	6	8	2.2	0.3	-1.5
COc1ccc(F)c(-c2nc(CN3CCN(C(=O)c4ccco4)CC3)c(C)o2)c1	9	-8	nt	-1	i	1	2	0.6	1.0	?
COc1ccc(N2C(=O)CC(Sc3nc4ccccc4s3)C2=O)cc1OC (stereo not drawn)	9	97*	6	9	i	5	2	2.4	-2.8	-0.4
COC(=O)C1=C(C)NC2=C(C(=O)CC(C)(C)C2)C1c1ccccn1 (stereo not drawn)	0	-2	-4	3	i	8	0	-9.3	2.5	8.4
CCCCCCn1c(N2CCC(C)CC2)nc2c1c(=O)[nH]c(=O)n2C	-6	-4	7	9	nt	nt	nt	nt	nt	5.1
Cc1ccc(-c2noc(CCCOc3ccc(Cl)cc3Cl)n2)cc1	-4	11	-4	-8	nt	nt	nt	nt	nt	-0.1
CN(C(=O)CC1C(=O)NCCN1CC1CCCCC1)C1CCOCC1 (stereo not drawn)	-7	-9	11	-8	nt	11	7	2.4	0.7	4.9
O=C(c1ccc(Cl)cc1)N(c1ccccn1)C1CCCCC1	-13	-8	-1	-11	i	-23	-39	-11	-5.1	-4.8
CCOc1ccc(CNc2ccc3c(c2)ncn3C(C)(C)C)cc1	25	68	4	3	i	-53	-65	2.8	13	19*
O=c1c2ccccc2c(-c2ccccc2)nn1-c1cc(Cl)cc(Cl)c1	-1	8	11	-27	i	-2	3	-2.4	-3.1	3.6
O=C(O)C1C2CCC(C2)C1C(=O)NCCc1ccccc1 (stereo not drawn)	-3	-2	1	-6	i	3	6	-0.8	-7.5	1.3
COc1cccc(CNC(=O)c2cc(C3CC3)nc3c2cnn3C(C)C)c1	nt	-1	5	nt	i	-23	-48	-1.1	-11	nt

Some entries already given, limited to Beta cell apopt.
SMILES	Beta cell apopt
CCOc1ccc(CNc2ccc3c(c2)ncn3C(C)(C)C)cc1	4
COc1ccc(C)cc1N(C(=O)CNC(=O)c1ccco1)C(C(=O)NCC1CCCO1)c1ccccc1 (stereo not drawn)	-8

Next section:
SMILES	Calb FLC	ALR H2O2 inh	Beta cell apopt	T cruzi repl	FGF22 binding	Ecoli rRNA inh	Ecoli rRNA inh OD600	Ecoli rRNA inh RFP	MLL AF4-AF9 inh	RanGTP-Impb inh
C=C1CCN(CC(=O)OC)S(=O)(=O)c2ccccc21	-4	-5	-3	-21	i	8	5	-6.4	0.0	-3.3
Cc1cccc(NC(=O)c2ccc(Cl)c(S(=O)(=O)N3CCCCCC3)c2)n1	nt	2	-8	nt	i	0	-16	0.2	7.6	nt
CCOC(=O)C(NC(=O)CC(C)C)(Nc1sc(C)c(CC)c1C#N)C(F)(F)F (stereo not drawn)	14	-6	nt	14	i	-8	-9	-14	2.8	0.7
COC(=O)c1sccc1NC(=O)c1ccc2c(c1)OCO2	-7	-1	-12	-16	i	13	3	1.2	-9.0	0.3
O=C(CN1C(=O)C(=O)c2ccccc21)NCCc1ccccc1	-47	-12	-9	-47	i	8	-4	2.8	-0.1	2.6
O=C(NNC(=S)NC(=O)c1ccccc1)c1ccc([N+](=O)[O-])cc1	84*	99*	4	-14	i	-31	-30	-3.9	3.4	-1.4
Cc1cc(C)n2nc(C(=O)Nc3cccc(S(=O)(=O)N4CCCC4)c3)nc2n1	-10	nt	-2	8	i	-2	-1	-4.7	-24	-0.3
CC(C)(C)c1ccc(OCCC(=O)OCC(=O)NC(=O)NC2CCCC2)cc1	7	0	nt	-1	i	0	-2	-0.3	-9.1	-2.9
O=C(N/N=C\c1cc2c(cc1Cl)OCO2)c1ccc(Br)s1	-5	1	3	-4	i	-3	4	-1.3	-18	4.8
CC(C)(C)OC(=O)[C@H](Cc1ccccc1)NC(=O)c1nc[nH]c1C(=O)NC1CCNCC1	18	-10	4	-4	i	-2	-7	0.9	6.1	-2.3
N=c1c(S(=O)(=O)c2ccccc2)cc2c(=O)n3ccccc3nc2n1Cc1cccnc1	-6	-2	4	37	i	0	7	1.2	-1.2	122*
CN(C(=S)Oc1ccc(C(=O)Nc2ccccc2)cc1)c1ccccc1	5	1	0	-19	nt	nt	nt	nt	nt	-0.8
CC(=O)Oc1ccc(C(=O)NCCc2ccccc2)cc1	-4	-4	-2	-25	i	10	13	-0.5	-0.8	-4.6
COc1cc(C(=O)NC(=S)Nc2ccc3oc(=O)ccc3c2)cc(OC)c1OC	3	nt	0	7	nt	nt	nt	nt	nt	-0.8
Cc1cc(Nc2ccc(F)cc2Cl)n2nc(C)nc2n1	-3	nt	-7	2	i	0	-1	-3.9	-0.2	-4.3
Cc1cc(C)n(-c2ccc(C(=O)OCC(=O)Nc3ccc(S(=O)(=O)N4CCOCC4)cc3)cc2)n1	6	-12	-5	-4	nt	nt	nt	nt	nt	-3.3
Cc1ccnc(NC(=O)C2CCCN(S(=O)(=O)c3cnc[nH]3)C2)c1 (stereo not drawn)	-1	31	nt	6	i	0	-11	-4.2	5.8	3.1
CC(NC(=O)COC(=O)CCc1ccc(S(=O)(=O)N2CCOCC2)cc1)C1CC2CCC1C2 (stereo not drawn)	5	nt	-6	-5	nt	nt	nt	nt	nt	-1.1
COc1ccc(C(C(=O)NC(C)(C)C)N(C(=O)CCC(=O)Nc2cc(C)on2)c2cccc(F)c2)cc1 (stereo not drawn)	3	nt	0	10	i	0	4	0.8	23	-2.1
CN(C(N)=S)c1ccccc1	-3	-8	-1	23	nt	nt	nt	nt	nt	0.4
Cc1cc(C)nc(Nc2n[nH]c(-c3ccccc3N)n2)n1	12	1	-4	-5	i	nt	nt	nt	1.1	4.7
COc1ccc(NC(=O)/C(C#N)=C/c2cccnc2)c(OC)c1	13	52	7	4	i	5	8	-0.2	-0.7	1.1
COc1cccc2cc(-c3cc(=O)oc4ccc(O)cc34)oc12	30	nt	1	-12	i	3	12	-1.2	2.5	4.8
CC[C@@]1(C(=O)OC)N[C@H](CN(C)C(=O)Nc2ccc(OC)cc2)[C@@H]2C(=O)N(Cc3ccccc3)C(=O)[C@@H]21	nt	2	-5	nt	i	5	4	-0.3	1.0	nt
COc1ccc(-n2c(C)ccc2-c2ccccc2)cn1	-8	nt	-12	-5	i	110	12	4.5	2.7	-4.1
NC(=O)c1ccc(Oc2ncc(C(F)(F)F)cc2Cl)cc1	-1	-12	1	-2	i	-11	-7	-3.5	-3.6	6.2
Cc1ccc(N(C(=O)c2csnn2)C(C(=O)NC2CCCC2)c2ccncc2)c(C)c1 (stereo not drawn)	21	-4	0	3	i	-3	-1	-3.0	1.5	2.1
O=C(CSC(=S)N1CCN(c2ccccc2)CC1)Nc1nc(-c2ccccc2)c(-c2ccccc2)o1	-9	1	-7	15	i	13	13	2.6	0.1	-0.1
COCc1cc(=O)[nH]c(-c2csc(C)n2)n1	2	1	6	-13	i	7	8	-1.7	-0.4	-2.0
O=C1[C@@H]2Cc3c([nH]c4ccccc34)C(c3cccc(Br)c3)N2C(=O)CN1C1CCN(Cc2ccccc2)CC1 (stereo partly drawn)	-3	-6	23	65*	i	-28	-35	26	4.9	-3.6
CC(OC(=O)CCc1ccccc1)C(=O)Nc1ccc(Cl)cn1 (stereo not drawn)	0	-2	nt	-9	i	5	3	2.0	-4.2	?
O=C(COc1c(Cl)cccc1Cl)Nc1ccccc1N1CCCC1	1	12	-2	6	i	-39	-48	-5.2	12	1.5
O=[N+]([O-])c1cc(S(=O)(=O)NCCN2CCOCC2)ccc1Cl	-5	-12	-11	0	i	-2	8	-2.9	-8.3	2.6
Cc1nnc(SCC(=O)c2c(N)n(C)c(=O)n(C)c2=O)n1Cc1ccccc1	1	-7	4	-57	i	2	9	-12	-32	4.9
Cc1cccc(C)c1NC(=O)c1cccc2c1C(=O)N(C1CCCCC1)C2	28	0	42	19	nt	nt	nt	nt	nt	?
OC(CNCc1ccco1)Cn1c2ccccc2c2ccccc21 (stereo not drawn)	22	-14	-2	29	nt	nt	nt	nt	nt	7.0
O=C1NC(c2cccnc2)C(C(=O)c2cccs2)C(O)(C(F)(F)F)N1 (stereo not drawn)	-3	1	-7	-21	nt	nt	nt	nt	nt	-4.6
CCC(C)NC(=O)CSc1nc2cc(S(=O)(=O)N3CCOCC3)ccc2n1CC (stereo not drawn)	-5	0	-6	6	nt	6	10	-0.5	1.1	-11
COc1ccc(OC)c(S(=O)(=O)NC(C)c2cnn(-c3ccccn3)c2C)c1 (stereo not drawn)	4	-5	-5	-8	i	nt	nt	nt	-1.5	-0.3
Cc1nn(C(C)C(=O)NCCCN2CCCCC2C)c(=O)c2c1sc1ccccc12 (stereo not drawn)	-1	-6	-6	-2	i	3	11	0.8	-5.7	2.6
Cc1nc(C)n(CC(C)C(=O)N2CCN(S(=O)(=O)c3ccc(Cl)cc3)CC2)n1 (stereo not drawn)	1	0	1	12	i	nt	nt	nt	0.9	2.0
CC(C)(C)NC(=S)NCc1cccnc1	7	2	-6	4	nt	nt	nt	nt	nt	-0.7
Cc1cccc2cc(C#N)c(SCc3nnc(-c4ccccc4[N+](=O)[O-])o3)nc12	11	-14	0	-2	i	6	-17	-5.3	5.4	3.6
Cc1ccc2[nH]c(=O)c(CNC(C)C)cc2c1	6	4	-5	-15	nt	nt	nt	nt	nt	?
CO/N=C/c1ccc(Oc2ccc(C)cc2)c([N+](=O)[O-])c1	2	-6	7	-20	i	-8	-26	-6.5	9.7	0.6
O=C(O)CC(NC(=O)C12CC3CC(CC(C3)C1)C2)c1ccc(F)cc1 (stereo not drawn)	1	-1	-6	3	i	5	4	1.1	3.3	2.3
CCOc1cc2c(cc1OCC)C(c1ccccc1)N(c1ccccc1)C(=O)C2 (stereo not drawn)	-13	-5	0	0	nt	nt	nt	nt	nt	1.2
Cc1cc(O)c(-c2cc(C(=O)Nc3cccnc3)[nH]n2)cc1C	1	-1	-3	-12	i	2	5	-2.1	-3.8	-1.9
CC(=O)c1ccc(NC(=O)c2ccc3nc(C)sc3c2)cc1	11	-3	1	-17	i	2	4	-2.7	2.5	2.8
C=CCN1C(=O)c2ccc(C(=O)N3CCN(c4ccccc4OC)CC3)cc2C1=O	-6	nt	-4	-5	i	1	-3	0.2	-20	0.2
CC(=O)NCC(=O)NC(C(=O)Nc1ccc2c(c1)OCCO2)c1ccc(C)cc1 (stereo not drawn)	4	-2	-10	3	nt	nt	nt	nt	nt	4.8
Cc1nnc(C)n1/N=C/c1ccc(O)cc1	-2	9	-4	-12	nt	nt	nt	nt	nt	-1.6
O=C(CSCc1ccc(Cl)cc1)Nc1ccccc1C(=O)N1CCOCC1	-3	2	-7	8	nt	0	0	0.0	nt	-1.0
O=C(CCN1C(=O)/C(=C/c2ccccc2Cl)SC1=S)NC1CCS(=O)(=O)C1 (stereo not drawn)	-5	-1	-4	-3	i	-4	-3	-1.4	1.1	0.9

Screens from PubChem.
